Compound activity deposited in PubChem by several laboratories.
Mtb H37Rv – M. tuberculosis H37Rv growth inhibitors, H37Rv strain (AID 1626) | M. tuberculosis H37Rv growth inhibition; higher % means a stronger effect | inhibition, % at 10 µM, or IC50 in µM where a hit was titrated | 220,000 compounds, 0.95% hits;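 active = confirmed in a dose series; inconclusive = inhibition above 80% but not taken into the dose series; inactive = below 80% or under 30% at every dose of the series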;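 also: bacteria incubated seven days before Alamar blue readout; 0% = bacteria only wells and 100% = bacteria with antibiotic wells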
Arbovirus inh – arbovirus infection inhibition | arbovirus infection cell-based antiviral screen | inhibition, % at 10 µM | 200,000 compounds, 0.37% hits;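 active = inhibition from about 30%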;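 also: bluetongue infection of BSR cells; cell survival read as ATP light after 72 h; 0% = infected wells without compound and 100% = uninfected wells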
YopH inh – YopH (Yersinia) phosphatase inhibition. inhibition, %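 (about 10 µM by stock and volumes)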. 140,000 compounds, 0.16% hits. fluorescence Ex485/Em525. AID 898;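 active = inhibition of 50% or more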;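 also: controls were vehicle for no effect and minimum signal wells for full effect; inactives centre near -20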
Mtb bLac sens – beta-lactam sensitization of Mtb H37Rv; M. tuberculosis H37Rv growth with meropenem, percent inhibition; hits of this screen are not shown here; inhibition, % at 25 µM; 330,000 compounds, 0.27% hits;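 active = about 74% or more and at least 40 points above the plate without the antibiotic, then above 30% in a dose series; inconclusive = first-round hits that could not be retested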;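 also: growth measured after seven days incubation then overnight dye step; 0% = bacteria only wells and 100% = bacteria with antibiotic; twin plates without the antibiotic show which effects depend on it; some results filed as inactive read as strong as hits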
RecA intein inh – Mtb RecA intein splicing inhibition. P9WHJ3. cell-free RecA intein splicing, fluorescence. inhibition, %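 (about 9 µM by stock and volumes)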. 290,000 compounds, 0.75% hits. AID 2221; in the data active = inhibition above about 30%; inconclusive = no clear call, values can overlap the other calls;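 also: 0% = vehicle wells and 100% = reference inhibitor control wells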
Target sequence (P9WHJ3 whole entry, looked up): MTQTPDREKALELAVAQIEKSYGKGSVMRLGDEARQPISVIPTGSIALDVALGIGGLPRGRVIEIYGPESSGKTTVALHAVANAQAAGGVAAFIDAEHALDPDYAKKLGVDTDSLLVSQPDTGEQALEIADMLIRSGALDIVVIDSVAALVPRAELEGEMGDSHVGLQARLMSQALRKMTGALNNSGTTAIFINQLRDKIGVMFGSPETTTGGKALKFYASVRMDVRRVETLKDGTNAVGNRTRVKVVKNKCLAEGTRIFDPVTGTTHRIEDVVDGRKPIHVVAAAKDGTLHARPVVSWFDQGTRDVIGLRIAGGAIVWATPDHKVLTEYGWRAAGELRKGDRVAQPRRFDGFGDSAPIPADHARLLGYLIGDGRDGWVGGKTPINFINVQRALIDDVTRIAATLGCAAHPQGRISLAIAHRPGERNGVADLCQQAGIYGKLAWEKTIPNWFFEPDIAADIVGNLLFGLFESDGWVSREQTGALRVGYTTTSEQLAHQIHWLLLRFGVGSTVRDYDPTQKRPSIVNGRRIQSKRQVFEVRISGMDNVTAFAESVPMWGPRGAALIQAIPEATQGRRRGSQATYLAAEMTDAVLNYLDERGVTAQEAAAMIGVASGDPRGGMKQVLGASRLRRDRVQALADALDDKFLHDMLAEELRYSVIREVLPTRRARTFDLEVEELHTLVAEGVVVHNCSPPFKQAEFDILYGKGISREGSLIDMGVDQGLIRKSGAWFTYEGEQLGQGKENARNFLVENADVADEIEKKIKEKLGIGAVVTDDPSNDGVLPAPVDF
Arbovirus inh repeat – also measured in Arbovirus inh; calls as there; inhibition, %; measured here: 10K subset replicate screen; many hits read low in the repeat;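 first of two repeat runs on a subset; 0% = infected and 100% = uninfected wells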
* = called active by the depositor; ? = inconclusive; . = no result given. Only part of the results is shown, so the mix of outcomes need not match the whole.

SMILES	Mtb H37Rv	Arbovirus inh	YopH inh	Mtb bLac sens	RecA intein inh	others
O=C(Nc1ccc(Cl)cc1C(F)(F)F)C(Sc1nnc(-c2cccs2)o1)c1ccccc1 (stereo not drawn)	17%	4	-15	14	1.2
COc1cc(NC(=O)CSc2nc3c(c(=O)n(C)c(=O)n3C)n2C)cc(OC)c1	.	.	.	0	1.1
Cc1c(OCc2ccccc2)cccc1OCc1ccccc1	-12%	6	-19	63	2.9
O=C(CN1CCN(C(=O)c2cccs2)CC1)Nc1ccc(Br)cc1	-6%	0	-27	8	-0.6
N#CC1(NC(=O)COC(=O)c2ccccc2[N+](=O)[O-])CCCCC1	.	.	.	-4	-2.7
NC(=O)c1cc([N+](=O)[O-])ccc1NCc1cccnc1	-6%	37*	.	-5	0.6
COCCCNC(=O)C1CCN(c2nc(C)cc(C)n2)CC1	3%	1	-28	5	-1.3
CCc1cc(C(=O)OC)c(NC(=O)CN2CCN(C(=O)c3ccco3)CC2)s1	.	.	.	-2	-0.1
Cc1cc(C)c(NC(=O)COC(=O)/C=C/c2cccs2)c(C)c1	2%	7	-15	-2	-10
CC1CCC(=NNC(=O)Cc2cccn2C)CC1 (stereo not drawn)	-5%	-1	.	-3	0.0
Cc1cc(N2CCCC2=O)c(N)cc1N	-9%	7	9	5	-2.7
COc1ccc(C(=O)/C=C/c2ccc(N3CCCCC3)c([N+](=O)[O-])c2)c(OC)c1	?	11	-9	92	9.2

Entries listed so far that have a halogen (two):
SMILES	Mtb H37Rv	Arbovirus inh	YopH inh	Mtb bLac sens	RecA intein inh	others
O=C(Nc1ccc(Cl)cc1C(F)(F)F)C(Sc1nnc(-c2cccs2)o1)c1ccccc1 (stereo not drawn)	17%	4	-15	14	1.2
O=C(CN1CCN(C(=O)c2cccs2)CC1)Nc1ccc(Br)cc1	-6%	0	-27	8	-0.6

Compounds shown so far containing a nitro group on carbon:
SMILES	Mtb H37Rv	Arbovirus inh	YopH inh	Mtb bLac sens	RecA intein inh	others
N#CC1(NC(=O)COC(=O)c2ccccc2[N+](=O)[O-])CCCCC1	.	.	.	-4	-2.7
NC(=O)c1cc([N+](=O)[O-])ccc1NCc1cccnc1	-6%	37*	.	-5	0.6
COc1ccc(C(=O)/C=C/c2ccc(N3CCCCC3)c([N+](=O)[O-])c2)c(OC)c1	?	11	-9	92	9.2

(more compounds)
SMILES	Mtb H37Rv	Arbovirus inh	YopH inh	Mtb bLac sens	RecA intein inh	others
CCOC(=O)c1sc(NC(=O)C(C)Sc2nnc(N)s2)nc1C (stereo not drawn)	-5%	1	.	-4	-5.5
COC(=O)c1cc(=O)n(Cc2ccc(F)cc2)c(=Nc2ccccc2)s1	-7%	.	.	0	5.2
Cc1ccc(/C(N)=N/OC(=O)Cc2cccc3ccccc23)cc1	11%	-5	.	10	0.2
Cc1ccc(-c2nc(C(=O)NCC3CCCO3)cc3c2[nH]c2ccccc23)cc1 (stereo not drawn)	.	.	.	8	17
Cc1ccc(S(=O)(=O)N(Cc2ccccc2)Cc2ccco2)cc1	6%	0	-47	-8	2.6
COC(=O)N1C(=O)[C@](c2ccc(OC)cc2)(C(C)C)N1C(=O)OC	.	.	.	-7	8.4
O=C(NCCN1CCN(c2ccccc2)CC1)C1CCN(S(=O)(=O)c2cccc3nonc23)CC1	4%	-8	-52	8	2.7
COc1ccc(CCNc2ccc(N3C(=O)CC(C)C3=O)cc2[N+](=O)[O-])cc1OC (stereo not drawn)	2%	1	.	-3	-0.7
CCCC(C)NC(=O)CSc1nnc(-c2c[nH]c3ccccc23)o1 (stereo not drawn)	-3%	-3	.	1	0.0
CCOc1ccc2ccccc2c1C(=O)N1CCN(c2ccccc2)CC1	1%	-15	-33	?	-0.1
Cc1cc(=O)[nH]c(Nc2ccc(Cl)cc2)n1	.	.	.	4	-0.7
CC(CC(=O)N1CCN(c2ccccc2)CC1)S(=O)(=O)c1ccc2c(c1)NC(=O)CO2 (stereo not drawn)	.	.	.	10	-1.1
O=C1NC(CCc2ccccc2)C(=O)N1Cc1cccc2ccccc12 (stereo not drawn)	5%	-2	-20	6	-0.2
COc1ccc(/C=N/NC(=O)c2ccccc2NC(=O)c2ccco2)c(OC)c1	-6%	.	.	-6	0.5
CC(C)NC(=O)c1ccccc1NC(=O)c1ccccc1N(C)S(C)(=O)=O	-4%	0	-25	-4	0.5
CC12CCC(c3c(C(=O)N4CCOCC4)nn(-c4ccccc4)c31)C2(C)C (stereo not drawn)	3%	15	.	-2	.
CCOC(=O)CNc1c(-c2ccc(O)cc2)nc2ccc(Cl)cn12	-3%	-11	-22	2	-7.5
Cn1cc(CNCc2ccc(OC(F)(F)F)cc2)c(-c2ccc3c(c2)OCCO3)n1	10%	-10	.	-1	-2.3
N#Cc1nc(-c2cccc3ccccc23)oc1NCC1CCCO1 (stereo not drawn)	11%	.	.	1	-7.2
CC1=Nn2c(nnc2-c2ccccc2)SC1	2%	0	0	2	-9.2
CCCCC(=O)Nc1ccccc1C(=O)OCC(=O)c1ccc2c(c1)OCCO2	18%	-11	-41	10	7.1
CCOC(=O)C(=CNc1cccc(C)n1)C(=O)OCC	.	14	-32	0	1.7
O=C(Nc1ccc2oc(=O)ccc2c1)c1ccc(-c2cccc([N+](=O)[O-])c2)o1	1%	.	.	86	2.1
Cc1c(C(=O)Nc2cccc(-c3nnc4n3CCCCC4)c2)oc2ccccc12	12%	6	-17	-1	-0.4

Ordered by length of the SMILES (rising): four of the compounds above
SMILES	Mtb H37Rv	Arbovirus inh	YopH inh	Mtb bLac sens	RecA intein inh	others
N#Cc1nc(-c2cccc3ccccc23)oc1NCC1CCCO1 (stereo not drawn)	11%	.	.	1	-7.2
CCOC(=O)CNc1c(-c2ccc(O)cc2)nc2ccc(Cl)cn12	-3%	-11	-22	2	-7.5
Cc1c(C(=O)Nc2cccc(-c3nnc4n3CCCCC4)c2)oc2ccccc12	12%	6	-17	-1	-0.4
O=C(Nc1ccc2oc(=O)ccc2c1)c1ccc(-c2cccc([N+](=O)[O-])c2)o1	1%	.	.	86	2.1

(next part)
SMILES	Mtb H37Rv	Arbovirus inh	YopH inh	Mtb bLac sens	RecA intein inh	others
Cc1cc(C)c(C)c(C(=O)c2ccccc2C(=O)O)c1C	1%	3	.	-9	.
CCc1ccccc1NC(=O)c1cnn(-c2ccccc2)c1C	.	.	.	-4	-0.3
CN(C)S(=O)(=O)c1ccc(C(=O)NCC2CC2(Cl)Cl)cc1 (stereo not drawn)	.	.	.	-7	0.8
C=CCOc1ccc(CNCc2cccnc2)cc1	.	.	.	-6	0.5
COc1cccc(C(=O)NCC(=O)N/N=C(C)\C=C\c2ccccc2)c1	6%	0	.	-2	0.8
CN(C)Cc1ccccc1CCc1ccccc1	.	.	.	-13	-0.4
COc1ccc(NC(=O)CSc2n[nH]c(-c3ccco3)n2)cc1	13%	-6	.	82	-1.3
O=C(c1cccc(-c2nnc(-c3ccccc3)o2)c1)N1CCCCC1	51%	1	-18	99	0.9
Cc1cc(/C=C2/NC(=O)NC2=O)c(C)n1-c1ccc(C#N)cc1	-4%	15	.	5	-4.6
CC(=O)Nc1ccc(/C=C/c2nc3ccccc3[nH]c2=O)cc1	.	.	.	-4	-2.6
Cc1ccc(C)c(OCCC(=O)OCC(=O)NC2CCCC2)c1	.	.	.	5	-2.3
COc1ccc(CC(=O)NNc2ncnc3c2cnn3-c2ccc(C)cc2)cc1	3%	-22	-21	-6	-10
CN(C)CCNC(=O)Nc1ccc(F)cc1F	5%	4	.	-2	0.8
CN1CCc2c(sc(NC(=O)c3ccc(S(=O)(=O)N4CCCCCC4)cc3)c2C(N)=O)C1	.	.	.	-16	-5.0
COc1ccccc1CC(=O)N1CCN(c2cccc(C(F)(F)F)c2)CC1	1%	8	-8	-1	-0.9	Arbovirus inh repeat=-1
CCOc1nc(C)ccc1-c1noc(CC)n1	-1%	4	-38	-10	2.4
CC(C)OC(=O)CC(=O)CSc1nc(-c2ccc(F)cc2)cc(-c2ccccc2)c1C#N	2%	-16	-17	0	-0.4
Cc1cccc(Cn2cc(SCC(=O)Nc3nccs3)c3ccccc32)c1	-7%	-14	-49	-2	-6.5
O=C(c1ccc2c3c(cccc13)CC2)N1CCN(c2ncccn2)CC1	6%	.	7	11	3.0
COc1cc(CNC(=O)c2ccc3c(c2)S(=O)(=O)c2ccccc2C3=O)cc(OC)c1	-6%	.	.	-2	1.8
O=c1c2[nH]cnc2n(-c2cccc(Br)c2)c(=O)n1Cc1ccccc1	.	.	.	7	-0.1
Cn1c(=O)c2c(ncn2CC(=O)OCC(=O)NC2CCCc3ccccc32)n(C)c1=O (stereo not drawn)	-4%	3	-98	0	-0.5
CCN1CCCc2cc(CN(CCN3CCOCC3)C(=S)Nc3cc(F)cc(F)c3)ccc21	6%	-2	.	-2	-1.7
Cc1ccc(Nc2ccc(C(=O)O)cc2[N+](=O)[O-])cc1	.	.	.	-1	0.0
O=C(CSc1nncn1-c1cccnc1)Nc1ccccc1C(F)(F)F	.	.	.	-9	-1.1
CCOc1ccccc1-c1nc(C(N)=O)c2[nH]c(=O)n(-c3cccc(C)c3)c2n1	.	30	-15	64	-1.4
COc1cc(NS(=O)(=O)c2ccc(C)cc2)c2ncccc2c1	11%	-38	-25	20	12
Cc1ccc2[nH]cc(CCNC(=O)CN3C(=O)c4ccccc4C3=O)c2c1	1%	-4	-25	-3	0.5
COc1cccc(-c2nc(CS(=O)(=O)CC(=O)NC3CCCCCC3)c(C)o2)c1	.	.	.	3	-0.7
O=C(NC(Cc1c[nH]c2ccccc12)C(=O)N/N=C/c1ccc(Cl)cc1)c1cccs1 (stereo not drawn)	33%	-12	.	-5	14
Cc1cc(C)c2c(n1)sc1c(O)cc(=O)[nH]c12	-15%	5	-31	-6	-2.8
Cc1oc(-c2ccccc2Cl)[n+]([O-])c1C	7%	2	-9	25	0.5
CCc1nn(CC(=O)NC(C)CCc2ccccc2)c(=O)c2cc3occc3n12 (stereo not drawn)	.	.	.	-1	2.5
O=C(N[C@H](C(=O)O)c1ccccc1)C1CCC(Cn2nnc3ccccc3c2=O)CC1 (stereo partly drawn)	1%	.	.	-10	0.9
Cc1nnc(NC(=O)CSc2nnc3scc(-c4ccc(C)c(C)c4)n23)s1	-15%	5	-51	-9	-2.9
CC(=O)Nc1nc(CC(C)C)cc2c1c(=O)oc1ccccc12	0%	7	12	6	1.2
CN1CCN(C(=O)CN(C)S(=O)(=O)c2ccc3ccccc3c2)CC1	49%	20	.	-1	-1.4
Cc1ccc(CN2CC(C(=O)O)CC2=O)cc1 (stereo not drawn)	-8%	-1	-14	-7	.
O=C(CCN1C(=O)/C(=C/c2ccccc2F)SC1=S)Nc1cccnc1	.	.	.	-1	-1.9
COc1cc(C(=O)Nc2sc3c(c2C#N)CCN(C(C)=O)C3)cc(OC)c1OC	10%	-1	-19	0	3.3
CCOc1cc(-c2conc2N)cc(OCC)c1OCC	-5%	-2	-19	14	-3.5
O=C(CN1CCN(Cc2ccccc2)CC1)Nc1ccc(Cl)cn1	0%	1	-18	-6	0.6
Cc1nc(NCCc2ccccc2)sc1C(=O)O	.	.	.	1	-1.9
Cc1c(C)c2ccc(OC(C)C(=O)NCCCN3CCOCC3)c(C)c2oc1=O (stereo not drawn)	.	.	.	-3	-1.6
COC(=O)c1cccc(Nc2nc(-c3cccnc3)nc3ccccc23)c1	4%	.	.	5	1.9
Cc1[nH]c(=S)c(C#N)c(C)c1Cc1ccccc1	-6%	.	.	-8	1.2
O=C1NCCCC1C(=O)N/N=C/c1ccc([N+](=O)[O-])cc1 (stereo not drawn)	2%	.	.	-1	-0.6
COC(=O)CNC(=O)Cn1cnc2sc(C)c(S(=O)(=O)N3CCC(C)CC3)c2c1=O	-6%	10	13	-6	-2.1	Arbovirus inh repeat=1
CCC(C)(C)NC(=O)C(c1ccc(F)cc1)N(Cc1ccco1)C(=O)c1snc(C(N)=O)c1N (stereo not drawn)	-11%	4	-3	-1	1.1
C/C(=N\NC(=O)C(=O)Nc1cccc(Cl)c1C)c1ccncc1	10%	6	-16	2	-1.0
COc1ccc(Cl)cc1C(=O)Nc1cccc2ncccc12	.	.	.	1	2.1
COc1ccc(S(=O)(=O)N2CCOCC2)c(Cl)c1Cl	-11%	-3	-16	8	-0.9
C=CCOc1nc2sc(C)c(C)c2c(=O)n1-c1ccccc1	.	.	.	-10	4.7
Cc1cc(=O)oc(C)c1C(=O)N1CCN(c2ccc(F)cc2)CC1	-8%	0	-17	-7	-1.4
COc1ccc(C2Nc3ccccc3C(=O)N2NC(C)=O)c(OC)c1 (stereo not drawn)	.	.	.	2	-0.1
Cc1cc(C)n2nc(SCCOc3ccc(F)cc3)nc2n1	5%	-1	.	-6	2.1
CN(C)/C=C/C(=O)C(F)(F)F	6%	8	.	1	.
CCOC(=O)COc1cc(OCC(=O)OCC)c2c3c(c(=O)oc2c1)CCCC3	.	.	.	99	-3.7
